MenB inh: Mtb MenB enzyme inhibition | P9WNP5 | AID 540299 | inhibition, %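 (about 12 µg/mL by stock and volumes)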 | MenB enzyme assay, absorbance read-out; some hits fall short of the stated cut | 100,000 compounds, 0.43% hits;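 active = mean of two replicates above 30%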;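 also: 0% = no compound and 100% = wells with inactive enzyme; the first replicate is given; strong numbers were not always called active; inactives centre near -10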
Polio RdRp inh: poliovirus RNA polymerase inhibition. P03300. poliovirus polymerase elongation, fluorescence polarization; stronger effect = lower value. % elongation, % (compound at 16.7 µg/mL). 150,000 compounds, 0.66% hits. AID 588519; in the data active = % elongation below about 90%; also: some results filed as inactive read as strong as hits
Target sequence (P03300 1749-2209 limits assumed): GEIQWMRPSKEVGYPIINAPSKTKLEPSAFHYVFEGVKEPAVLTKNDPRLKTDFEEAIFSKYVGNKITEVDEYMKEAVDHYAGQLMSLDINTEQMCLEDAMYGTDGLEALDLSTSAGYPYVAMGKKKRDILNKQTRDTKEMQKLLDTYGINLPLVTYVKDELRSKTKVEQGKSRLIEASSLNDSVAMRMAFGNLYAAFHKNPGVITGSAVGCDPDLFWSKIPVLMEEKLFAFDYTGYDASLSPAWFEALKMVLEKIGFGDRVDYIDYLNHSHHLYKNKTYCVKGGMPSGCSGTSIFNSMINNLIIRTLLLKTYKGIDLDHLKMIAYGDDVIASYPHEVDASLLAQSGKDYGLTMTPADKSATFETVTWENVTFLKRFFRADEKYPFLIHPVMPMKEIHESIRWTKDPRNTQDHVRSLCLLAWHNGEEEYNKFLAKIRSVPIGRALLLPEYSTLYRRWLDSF
Mtb MbtI inh: blocks the Mycobacterium tuberculosis siderophore enzyme MbtI. P9WFX0. purified MbtI enzyme, fluorescence intensity read-out. inhibition, %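 (about 17 µg/mL by stock and volumes)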. 100,000 compounds, 0.89% hits;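 active = above 50% in both replicates, above 80% if mildly self-fluorescent; inactive = the rest, strongly fluorescent compounds included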;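 also: 0% = mean of negative and 100% = mean of positive controls; one replicate is shown; some compounds called inactive have numbers as strong as hits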
Target sequence (P9WFX0 whole entry, looked up): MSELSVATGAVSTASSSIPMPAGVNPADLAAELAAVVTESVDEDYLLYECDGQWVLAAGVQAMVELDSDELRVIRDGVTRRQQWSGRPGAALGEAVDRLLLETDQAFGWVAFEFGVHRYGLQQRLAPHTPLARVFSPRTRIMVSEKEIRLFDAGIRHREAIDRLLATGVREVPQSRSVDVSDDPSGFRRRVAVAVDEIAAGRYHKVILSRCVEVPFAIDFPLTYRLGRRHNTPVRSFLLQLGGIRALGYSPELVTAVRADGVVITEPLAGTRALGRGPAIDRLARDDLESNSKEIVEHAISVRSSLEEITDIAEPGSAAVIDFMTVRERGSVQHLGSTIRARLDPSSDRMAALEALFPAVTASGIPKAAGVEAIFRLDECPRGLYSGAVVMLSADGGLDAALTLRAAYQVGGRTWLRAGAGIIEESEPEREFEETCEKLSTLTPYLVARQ
Polio RdRp inh intensity: recorded beside Polio RdRp inh, whose call it bears; % elongation; measured here: total intensity read-out; formula for this scale not given here;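 total fluorescence in place of polarization; lower means less elongation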
* hit, by the source's call; i = inactive; . = no result given.

SMILES	MenB inh	Polio RdRp inh	Polio RdRp inh intensity	Mtb MbtI inh
S=C(NCCc1ccccc1)c1ccccc1	-9	103	101	-10
Clc1ccc2nc(CSc3ncccn3)cn2c1	-27	109	103	-13
O=C(NCCN1CCOCC1)c1ccccn1	-23	100	106	.
Oc1ccccc1C=Nc1ccccc1Cl	-9	107	111	.
Cc1nn(-c2ccccc2Cl)c2sc(C(=O)N3CCCC3)cc12	.	102	95	2
O=C(C(F)F)N1CCN(c2ccccc2)CC1	-8	101	99	-23
CC(C)(O)/C(=C/C#N)n1cccn1	-20	104	105	.
COC(=O)Cn1c(C)cc(C)c(C#N)c1=O	-26	100	102	-5
COc1cccc(/C([O-])=N\c2c[n+](-c3ccc(C)cc3)no2)c1	.	100	101	-38
CC1CCC(NC(=O)c2oc(=O)c3ccccc3c2-c2ccccc2)CC1 (configuration not stated)	-19	103	96	-1
CC(C)NC(=O)CSc1ccccc1C(=O)Nc1ccc(-n2cnnn2)cc1	-1	103	110	1
NC(=S)N/N=C/c1c[nH]c2ccccc12	3	99	101	18

Look-ups from the entries so far.
Polio RdRp inh, `COc1cccc(/C([O-])=N\c2c[n+](-c3ccc(C)cc3)no2)c1` : 100
Polio RdRp inh intensity, `COC(=O)Cn1c(C)cc(C)c(C#N)c1=O` : 102
Polio RdRp inh, `CC(C)(O)/C(=C/C#N)n1cccn1` : 104

Record cards (already shown). Order of values: MenB inh | Polio RdRp inh | Polio RdRp inh intensity | Mtb MbtI inh
S=C(NCCc1ccccc1)c1ccccc1 as listed: -9 | 103 | 101 | -10
CC(C)(O)/C(=C/C#N)n1cccn1 as listed: -20 | 104 | 105 | .
CC1CCC(NC(=O)c2oc(=O)c3ccccc3c2-c2ccccc2)CC1 (configuration not stated) as listed: -19 | 103 | 96 | -1

Structures listed so far that contain nitrogen in an aromatic ring (8):
SMILES	MenB inh	Polio RdRp inh	Polio RdRp inh intensity	Mtb MbtI inh
Clc1ccc2nc(CSc3ncccn3)cn2c1	-27	109	103	-13
O=C(NCCN1CCOCC1)c1ccccn1	-23	100	106	.
Cc1nn(-c2ccccc2Cl)c2sc(C(=O)N3CCCC3)cc12	.	102	95	2
CC(C)(O)/C(=C/C#N)n1cccn1	-20	104	105	.
COC(=O)Cn1c(C)cc(C)c(C#N)c1=O	-26	100	102	-5
COc1cccc(/C([O-])=N\c2c[n+](-c3ccc(C)cc3)no2)c1	.	100	101	-38
CC(C)NC(=O)CSc1ccccc1C(=O)Nc1ccc(-n2cnnn2)cc1	-1	103	110	1
NC(=S)N/N=C/c1c[nH]c2ccccc12	3	99	101	18

The list goes on.
SMILES	MenB inh	Polio RdRp inh	Polio RdRp inh intensity	Mtb MbtI inh
CCN(CC)S(=O)(=O)c1ccc(N2CC(C)OC(C)C2)nc1 (configuration not stated)	-11	.	.	17
O=C(/N=C1/SCCN1CC(=O)c1ccccc1)Nc1ccccc1	0	101	105	8
O=C(CN1CCN(c2ccccn2)CC1)N1CCc2ccccc2C1	-7	103	108	2
CCOC(=O)c1sc(S(C)=O)c2c1CCCC2=O (configuration not stated)	19	98	100	63*
CC1(O)c2ccccc2C(=O)N1CCc1cccc2ccccc12 (configuration not stated)	-28	108	102	.
Cc1cc(NC(=O)Cn2nc3c(cc2=O)CCCC3)ccc1Br	-24	110	114	-7
Cc1cc(C)cc(N2C(=O)CC(N(C(=O)c3ccco3)c3cc(C)cc(C)c3)C2=O)c1 (configuration not stated)	-28	103	102	-2
CCC1OC(c2cccc(OC)c2)=Nc2ccccc21 (configuration not stated)	-5	99	99	.
Cc1nn(-c2ccccc2)c2nc(C(F)(F)F)[nH]c(=O)c12	.	101	105	-10
O=C(CC1(C(=O)O)CCCC1)N1CCOCC1	6	105	106	-6
COc1cc(-c2nc3sc4c(c3c(=O)[nH]2)CCCC4)ccc1OCc1cc(=O)n2nc(C)sc2n1	1	99	95	0
CC(C)(C)C1CCc2nc(NC(=O)CC#N)sc2C1 (configuration not stated)	-18	102	106	8
O=CNc1nonc1NNc1nonc1NC=O	-14	102	102	24
Nc1ccc(-c2nc3ccccc3s2)cc1	-12	113	113	.
Cn1[nH]c(=O)c2cc(Cl)c(Cl)cc2c1=O	-24	101	96	-3
Cc1ccc(S(=O)(=O)c2nc(N3CCCC(C)C3)sc2Cl)cc1 (configuration not stated)	-38	99	103	-3
NC(=O)Cn1c(=O)n(CCc2nc(-c3ccccc3)no2)c(=O)c2ccccc21	9	103	99	82
O=S(=O)(Nc1ccc(-c2nc3ccccc3o2)cc1)c1ccccc1	-4	102	102	i
CCOC(=O)NC1(Nc2ccccc2Cl)Oc2ccccc2O1	-11	99	100	-4
Cc1c(C(=O)OCC#N)oc2ccc(Br)cc12	-1	98	109	2
CN(C(=O)COC(=O)c1cccnc1Nc1cccc(C(F)(F)F)c1)C1CCS(=O)(=O)C1 (configuration not stated)	-9	103	97	-1
Cc1cc(C)cc(NC(=O)NC(C)C2CCCO2)c1 (configuration not stated)	-41	102	103	-21
CC1CCCCN1C(=O)c1cc2nc3c(c(C(F)(F)F)n2n1)CCc1ccccc1-3 (configuration not stated)	-19	100	102	-15
C=C(C)C1CC=C(CN(C)C2CCN(C)CC2)CC1 (configuration not stated)	-34	103	101	-3
CCc1nc(C)c(-c2ccccc2)c(=O)[nH]1	.	101	97	0
CC(=O)Nc1ccc(/C=c2\sc3nc4ccccc4n3c2=O)cc1	-7	103	111	-1
NC(c1ccccc1)c1ccccc1	-20	100	97	5
CCOC(=O)N1CCN(CC(=O)c2ccc3c(c2)CCN3C(C)=O)CC1	1	100	103	31
Cc1ccc(-c2cc(C(=O)O)c3ccccc3n2)o1	5	97	104	.
O=C1N=C(N2CCCC2)S/C1=C/c1cccc(Cl)c1	-19	100	105	.
CC1(C)CC2CC(C)(CN2C(=O)COC(=O)c2ccc(O)cc2)C1 (configuration not stated)	-27	100	96	-3
O=S(=O)(c1cccc(NC(=S)N2CCN(c3ccc(F)cc3)CC2)c1)C(F)F	-19	103	98	1
CCOc1ccc(NC(=O)C2CC(=O)C(C(=O)OC)=C3C(=O)NCCN32)cc1 (configuration not stated)	-2	102	102	26
[C-]#[N+]c1ccc(Cl)cc1C(C)S(=O)(=O)c1ccc(C)cc1 (configuration not stated)	-76	105	110	.
COc1ccc(Cn2[nH]nnc2=S)cc1	-64	100	101	3
CC(C)CN1C(=O)C(O)(c2nnc(-c3ccccc3)o2)c2ccccc21 (configuration not stated)	5	105	100	10
CN(C)S(=O)(=O)c1ccc(C(=O)N2C(=O)c3cccc(N)c3C2=O)cc1	-38	80	108	-2
Cc1cc(NC(=O)CSc2nnc(-c3ccco3)o2)no1	-24	99	98	-7
CC12CCC3C(C1)C(C(=O)O2)C(=O)OC3(C)C (configuration not stated)	-4	101	102	-3
OC(CN1CCNCC1)Cn1c2ccccc2c2ccccc21 (configuration not stated)	1	100	101	-63
O=C1Nc2ccccc2S/C1=C/c1ccc(C(=O)N2CCCCC2)cc1	-25	101	104	2
Cc1ccc(Nc2nc(C)cc(C)n2)c(Br)c1	-22	98	102	.
COc1ccc(CC(=O)Nc2cccc(-c3nc4cc5ccccc5cc4[nH]3)c2)cc1	-51	103	109	108
Cc1ccc(-n2c3c(cc(C(=O)NCc4ccco4)c2=O)C(=O)CCC3)cc1	-5	103	101	12
C=CCn1c(NCc2ccccc2C)nc2ccccc21	0	103	102	-2
COC(=O)NCCOc1ccc(C)cc1	1	103	108	.
Cc1ccc(NC(=O)COC(=O)c2ccc3c(=O)[nH]c(CN4CCOCC4)nc3c2)cc1C	-14	101	109	-1
CCOC(=O)c1ccc(N=C=S)cc1	8	95	94	9
O=C(CSc1ncnc2c1oc1ccccc12)c1cc2c3c(c1)CC(=O)N3CCC2	-31	116	122	3
COC(=O)c1cc2oc3ccccc3c2n1CC(=O)N1CCCc2ccccc21	-10	103	105	9
Cc1ccc2c(c1)c(-c1ccccc1)c(-c1ccccc1)n2CC(O)CN1C(=O)CNC1=O (configuration not stated)	-12	103	106	96
CN(C)c1ccc(NCc2cccc(Br)c2)cc1	-1	102	105	1
O=C(CSc1nc2c(c(=O)n1-c1ccc(F)cc1)SCC2)Nc1ccc(F)cc1	-7	101	101	-5
COc1ccc(-c2n[nH]c(C)c2Oc2ccccc2)c(O)c1	-12	106	110	.
C1=CCC(CN2CCNCC2)CC1 (configuration not stated)	3	101	99	-10
CC1SC(/N=C/c2ccc(F)cc2)=NNC1=O (configuration not stated)	-13	105	101	.
O=C(COc1ccc(Br)cc1)NCC1CCCO1 (configuration not stated)	-6	102	101	4
O=C(CSc1n[nH]c(=O)[nH]c1=O)Nc1ccc(Br)cc1Br	8	100	101	-1
Nc1nc(N)c2nc(CNc3ccc(C(=O)NC(CCC(=O)O)C(=O)O)cc3)cnc2n1 (configuration not stated)	7	99	101	-6
Cn1c(=O)n(C)c2cc(CNC3C4CC5CC(C4)CC3C5)ccc21 (configuration not stated)	-10	103	100	-6
Further records
SMILES	MenB inh	Polio RdRp inh	Polio RdRp inh intensity	Mtb MbtI inh
COc1ccc(OC)c(-c2nc(Nc3ccccc3F)sc2CC(=O)O)c1	1	104	106	4
CN(Cc1ccccc1)C(=O)c1noc2c1CCCC2	-8	107	103	-19
Cc1nc(C(C#N)c2ccccc2)cs1 (configuration not stated)	.	101	107	-6
CCCn1[nH]cc(SC)c(=O)c1=O	-19	96	101	27
O=C(Nc1ccc2nc(CN3CCCCC3)[nH]c2c1)c1ccccc1F	0	102	103	1
COc1cc(NC(=O)CNc2cc(Cl)cc(Cl)c2)cc(OC)c1	-28	107	107	10
N#CC(C(=O)c1nc(N2CCN(Cc3ccccc3)CC2)ncc1Cl)c1nc2ccccc2c(=O)[nH]1 (configuration not stated)	-8	105	108	-3
CN1C(=O)CSc2ccccc21	-2	100	101	24
Cc1cc(C)c(NC(=O)CN(C)CC(N)=S)c(C)c1	-20	99	108	-2
O=C1CSC(c2ccc(Cl)cc2)N1CCN1CCCCC1 (configuration not stated)	14	100	102	2
COc1cc(C2C(C(=O)c3cc4cccc(OC)c4o3)=C(O)C(=O)N2c2nnc(C)s2)cc(Br)c1O (configuration not stated)	-34	75	175	-4
COc1ccc(N(C(C)C(=O)N(C)C)S(C)(=O)=O)cc1 (configuration not stated)	-7	102	102	6
CCn1c(=O)c2cc(C(=O)NCc3cccs3)sc2c2ccccc21	-20	102	102	14
O=C(C1CC1)N1CCN(C23CC4CC(CC(C4)C2)C3)CC1	-4	99	101	0
O=C(CS(=O)(=O)c1ccccc1)N1CCN(Cc2ccc3c(c2)OCO3)CC1	0	100	101	-5
NC(=O)c1ccccc1NC(=O)c1cc(=O)c2ccccc2o1	.	103	103	-3
CCc1ccccc1NC(=O)Cn1c(=O)oc2cc(S(=O)(=O)N3CCCCC3C)ccc21 (configuration not stated)	-19	100	104	-8
CCCC(=O)c1ccc2[s+]c3ccccc3[n+](CCCN(C)C)c2c1	-38	89*	76*	.
Cc1n[nH]c(C)c1N1C(=O)c2cccc3c(N)ccc(c23)C1=O	-127	69	193	1
O=C(CSc1nnc2ccccn12)Nc1ccccc1C(=O)O	-4	102	105	6
CNC(=S)NCCc1c(C)[nH]c2ccccc12	-10	104	108	8
O=C(NCCN1CCOCC1)c1cccs1	-9	103	100	.
Cc1cc(C)c(N=C=S)c(Cl)c1	-28	104	110	11
O=C1C(=Nc2ccccc2)c2ccccc2N1Cc1ccccc1	6	105	112	-11
O=C(CSc1nnc2ccccn12)Nc1ccc(F)cc1	-12	106	112	.
CC(=O)NCCc1cc2cc(C)c(C)cc2[nH]c1=O	-21	101	101	7
Cc1ccc(C)c(NC(=O)Cc2c(C)nc3c(-c4ccccc4)c(C)nn3c2C)c1	-1	102	105	-2
COc1ccccc1OCCn1c(NC(=O)c2cccs2)nc2ccccc21	10	101	103	-2
O=C1CCCC(O)=C1N=Nc1ccc(C(=O)O)cc1	-180	76*	71*	6
Cc1c(SCC(C)C)cc(N2C(=O)c3ccccc3C2=O)cc1S(=O)(=O)c1ccccc1	-10	103	109	.
N#Cc1ccccc1CSc1nnc2c(n1)[nH]c1ccccc12	-12	101	100	4
O=C(c1ccco1)N1CCN(C(=O)C(NS(=O)(=O)c2cccc3nsnc23)c2ccccc2)CC1 (configuration not stated)	-20	105	101	6
CC1(C)CC(=O)C(N=Nc2ccc3c(c2)OCCO3)=C(O)C1	-345	129	125	20
Nc1nc(=S)c2ncn([C@@H]3O[C@H](CO)[C@@H](O)[C@H]3O)c2[nH]1	2	101	103	9

Compounds listed so far that contain a CF3 group, in the order listed:
SMILES	MenB inh	Polio RdRp inh	Polio RdRp inh intensity	Mtb MbtI inh
Cc1nn(-c2ccccc2)c2nc(C(F)(F)F)[nH]c(=O)c12	.	101	105	-10
CN(C(=O)COC(=O)c1cccnc1Nc1cccc(C(F)(F)F)c1)C1CCS(=O)(=O)C1 (configuration not stated)	-9	103	97	-1
CC1CCCCN1C(=O)c1cc2nc3c(c(C(F)(F)F)n2n1)CCc1ccccc1-3 (configuration not stated)	-19	100	102	-15

Assay outcomes deposited in PubChem BioAssay by ICCB-Longwood Screening Facility, Harvard Medical School.
